# Sfp PPTase inh – blocks B. subtilis Sfp PPTase activity; Biochemical Sfp PPTase activity, qHTS; hit rate 3.5% among 310,000; Q9F4F7; Potency, µM, without a hit: max response, negative = inhibition, hits mostly inhibitors; AID 1490; active = well fitted inhibition curve with a large enough effect; inconclusive = small, poorly fitted or top-dose-only effect, or another doubt; inactive = no such curve, though single readings can be large or run the other way;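 note: the enzyme is Sfp with the accession as filed and its product quenches rhodamine fluorescence; potency is the fitted concentration of half-maximal effect; 0% = enzyme reaction without inhibitor and -100% = no enzyme wells; top concentration of the series not given in the record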
#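 Sfp 15 nM + cpd, 15 min RT; start w/ rhodamine-CoA 5 uM, BHQ-2-YbbR 12.5 uM (final); 50 mM Hepes pH 7.6, 10 mM MgCl2, 0.01% NP-40, 0.01% BSA; read 525/598 nm at 0 and 30 min.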
# Menin MLL FP FL – menin-MLL binding inhibition, fluorescein peptide | Fluorescence polarization, fluorescein-MLL peptide displacement from menin | FP activity change, % at 61.4 µM | 290,000 tested, under 10 active | AID 1766; inconclusive = falling polarisation curve, or a change in total fluorescence; inactive = total fluorescence flat and polarisation flat or rising; no compound was filed as active; the % refers to the polarisation; negative = inhibition;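 note: % of control where 0% means no effect; inhibitors lower the polarisation; unlabelled MLL peptide was the positive control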
# gsp antagonist – gsp mutant antagonism; hit rate 0.4% among 340,000; gsp-mutant cells, cAMP HTRF, 30 min; control for the full effect not named in the record; Potency, µM (doses to about 76.9 µM), without a hit: top-dose activity change, negative = inhibition, usual class: inhibitors; AID 624288; active = falling curve of any shape with a large fitted effect; inconclusive = falling curve, mostly with a smaller effect; inactive = flat or rising curve; cell line not stated here;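 note: intracellular cAMP measured with PDE inhibitor Ro 20-1724 present during compound exposure; potency is the fitted concentration of half-maximal effect; % is set by controls: 0 for no effect and ±100 for the full control effect; nearly all actives have a fitted effect of over 65% in size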
#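 HTRF cAMP read-out (cAMP-d2 plus anti-cAMP antibody-K in lysis buffer, 30 min RT). Before lysis, cells are exposed to compounds with […] for 30 min at 37C in DPBS containing Ca/Mg, BSA and Tween 20.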
# gsp agonist – gsp mutant agonism; gsp mutant cells, cAMP HTRF, 30 min; control for the full effect not named in the record; AID 624287; hit rate 0.13% among 340,000; Potency, µM (top dose mostly 76.9 µM), without a hit: at the highest dose activation (cAMP increase), usual class: activators; active = well fitted activation curve with a large enough effect; inconclusive = small, poorly fitted or top-dose-only effect, or another doubt; inactive = no such curve, though single readings can be large or run the other way; cell line not stated here;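 note: phosphodiesterase inhibitor Ro 20-1724 added with compounds to block cAMP breakdown; potency is the fitted concentration of half-maximal effect; nearly all actives have a fitted effect of over 60% in size; about a fifth of the inactives were tested at one dose only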
#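 Cells in DMEM/10% FBS with G418 were pretreated with compounds in DMSO plus […] (300 uM stock) for 30 min at 37C. cAMP was measured by HTRF (cAMP-d2 plus anti-cAMP antibody-K) after 30 min at room temperature.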
# TRPV1 PAM – enhances activation of the human vanilloid receptor TRPV1; TRPV1-expressing cells, Fluo-8 calcium influx, capsaicin EC20 potentiation; host cell line not named in the record; control for the full effect not named in the record; hit rate 0.02% among 320,000; potentiation, % at 8.33 µM; Q8NER1; AID 540277; active means potentiation above 80%; inconclusive means 30% to 80%; inactive means below 30%; note: 0% is about no effect
# Target sequence (Q8NER1 whole entry, looked up): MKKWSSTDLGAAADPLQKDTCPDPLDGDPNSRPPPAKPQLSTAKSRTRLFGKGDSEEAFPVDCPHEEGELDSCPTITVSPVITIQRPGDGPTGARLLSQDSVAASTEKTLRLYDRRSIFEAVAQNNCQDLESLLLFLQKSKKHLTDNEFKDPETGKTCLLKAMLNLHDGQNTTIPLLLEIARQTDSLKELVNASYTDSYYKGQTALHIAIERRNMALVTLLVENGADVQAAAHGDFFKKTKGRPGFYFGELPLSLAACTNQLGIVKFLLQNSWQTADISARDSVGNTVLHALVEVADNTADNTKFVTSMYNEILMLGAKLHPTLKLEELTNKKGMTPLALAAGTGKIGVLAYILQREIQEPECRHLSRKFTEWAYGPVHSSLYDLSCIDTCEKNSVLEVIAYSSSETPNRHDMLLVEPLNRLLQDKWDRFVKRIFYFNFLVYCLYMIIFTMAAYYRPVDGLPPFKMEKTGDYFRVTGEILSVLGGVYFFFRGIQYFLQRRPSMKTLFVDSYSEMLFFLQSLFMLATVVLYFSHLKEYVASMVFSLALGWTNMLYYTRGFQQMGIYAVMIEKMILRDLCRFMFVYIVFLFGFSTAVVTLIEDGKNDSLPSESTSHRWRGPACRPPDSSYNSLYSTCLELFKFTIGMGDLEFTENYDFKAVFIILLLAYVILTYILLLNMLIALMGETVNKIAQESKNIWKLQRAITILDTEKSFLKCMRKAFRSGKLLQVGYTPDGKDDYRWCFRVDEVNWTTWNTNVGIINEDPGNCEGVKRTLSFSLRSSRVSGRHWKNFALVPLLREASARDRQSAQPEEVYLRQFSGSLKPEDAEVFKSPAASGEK
#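 Fluo-8 calcium influx in TRPV1-expressing cells, kinetic read (ex 480/em 520 nm). Compound added and read 3 min for agonist activity, followed by capsaicin at EC20 final and 2 min further read for enhancement.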
# D2 potentiator – positive allosteric modulators of human D2 dopamine receptor; potentiation, % (concentration not given with the values); P14416; hit rate 0.23% among 360,000; DiscoveRx D2 beta-arrestin cells, luminescence, 90 min; 100% = 57 uM dopamine signal; AID 624464; active = potentiation of 50% or more; inconclusive = 30% to 50%; inactive = 30% or less;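 note: compound concentration not given in the record; tested on top of an EC20 dose of dopamine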
#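 PathHunter beta-arrestin assay in DiscoveRx D2 cells. Compounds were added with an EC20 of dopamine (50 nM final) for 90 min at 37 deg C. Luminescence was read 1 h after detection reagent, with 57 uM dopamine as the EC100 control.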
# ClpP mod – qHTS Assay for Activators of ClpP; purified B. subtilis ClpP, FRET peptide cleavage, 20 min; hit rate 1.9% among 340,000; ATP-dependent Clp protease proteolytic subunit (Bacillus subtilis (strain 168)), P80244; Potency, µM (top dose mostly 57.5 µM), without a hit: at the highest dose activity change, negative = active; AID 651965, 2013; active = well fitted falling curve with a large enough effect; inconclusive = small, poorly fitted or top-dose-only effect; inactive = no such curve, though single readings can be large or run the other way; note: potency is the fitted concentration of half-maximal effect; the source files actives as falling curves though it sought activators and does not explain the sign; nearly all actives have a fitted effect of over 65% in size; many hits overshoot -100%
# Target sequence (P80244 whole entry, looked up): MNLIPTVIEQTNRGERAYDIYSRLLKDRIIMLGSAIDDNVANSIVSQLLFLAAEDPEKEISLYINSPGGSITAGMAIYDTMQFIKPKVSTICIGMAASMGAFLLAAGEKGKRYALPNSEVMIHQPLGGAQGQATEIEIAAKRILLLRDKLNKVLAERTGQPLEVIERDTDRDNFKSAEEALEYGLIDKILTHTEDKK
#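 FRET quenching reversal measured ClpP activation: 10 microg/mL B. subtilis ClpP at pH 8 with the FRET-FV decapeptide, read at 430 nm after 320 nm excitation. The 20-min minus 0-min signal was scaled between DMSO/no-enzyme wells and ADEP (5.8 microM final).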
# Numbers without * were called inactive; ? = inconclusive; / = no result given; & = joins results of further samples; [ ] = remark or other dose.
item	SMILES	Sfp PPTase inh	Menin MLL FP FL	gsp antagonist	gsp agonist	TRPV1 PAM	D2 potentiator	ClpP mod
1	OC(c1ccc2ccccc2n1)c1c(Cl)cccc1Cl (stereo unspecified)	/	/	10%	7%[15.4 µM]	/	-4	-0.8%
2	CC(=O)Nc1ccc(NC(=O)COc2ccc(S(=O)(=O)N3CCCC3)cc2C)cc1	-3%	6.6	-18%	10%	-3	-3	/
3	S=C(Nc1ccc(Cl)cc1)Nc1ccc2c(c1)OCCO2	4%	/	2%	-57%[inhibitor]	2	-3	-0.6%
4	COc1ccccc1CNC(=S)NCc1ccc(Cl)cc1	15%	-1.1	-21%	?	0	-20	-0.2%
5	O=C1COc2ccccc2CN1	23%	-1.1	5%	?	12	-39	0.5%
6	CO/N=C(/CS(=O)Cc1ccc(Cl)cc1)c1ccc(Cl)cc1 (stereo unspecified)	32%[activator]	-0.2	-1%	9%	-26	-6	0.4%
7	Cc1ccccc1SCC(=O)NNC(=O)c1ccncc1	/	/	10%	-2%	9	-8	-0.3%
8	CC(=O)c1ccccc1OC(=O)COc1ccc([N+](=O)[O-])cc1	1%	-0.3	-9%	1%	-10	-6	/
9	CN(C)CCCN1C(=O)C2CCc3[nH]c4ccccc4c3C2C1=O (stereo unspecified)	7%	-10.0	?	-16%[15.4 µM]	12	1	/
10	Cc1cc(-c2nnc(SCC(=O)NC3CCCC3)o2)no1	24%	-0.9	6%	-49%[inhibitor]	-2	-10	0.8%
11	COc1ccc(NS(=O)(=O)NC(=O)c2c[nH]c3ccccc23)cc1	15%	/	6%	13%	4	-4	0.4%
12	O=c1c(-c2ccccc2)coc2c(CN3CCOCC3)c(O)ccc12	3%	-1.0	3%	5%	11	-25	?
13	CC1CCc2nc(NC(=O)CCSc3ccccc3)sc2C1 (stereo unspecified)	29%	2.5	5%	1%	-16	-6	-0.3%
14	CC(=O)Nc1c(O)nc(SCC(=O)N2CCCCC2)[nH]c1=O	/	/	-9%	-1%	-6	2	-23%
15	Cc1cccc(C)c1NC1=C(Cl)C(=O)OC1OC(=O)c1ccccc1 (stereo unspecified)	?	-0.1	9%	-14%[15.4 µM]	26	-3	/
16	Cc1nnc(NC(=O)C2CC(=O)N(C(C)c3ccccc3)C2)s1 (stereo unspecified)	9%	/	-6%	0%	-2	-1	1.3%
17	CCCCCCOc1ccc(C(=O)O)cc1	5%	-0.6	-15%	-31%[inhibitor]	8	1	-1.4%
18	COc1ccc(C[C@@H]2CN3C(=NC[C@@H]3C)N2CCNC(=O)c2ccc(C)c(Br)c2)cc1	11%	0.0	12%	-37%[inhibitor]	17	-31	-0.3%
19	C=CCN(CC=C)C(=S)NC(=O)/C=C/c1ccc(C)cc1	-9%	5.0	12%	?	9	-18	3.7%
20	CN(C)/C=N/c1c(C#N)cnn1-c1ncnc2sc(-c3ccccc3)cc12	0%	-0.4	?	-30%[inhibitor]	-6	4	?
21	CCC(=O)OC1(C)C(=O)C2=COC(c3ccc(OC)cc3)=CC2=C(Br)C1=O (stereo unspecified)	-9%&-6%	0.5&0.6	-7%	/	26	9	-1.2%
22	CCN(CC)S(=O)(=O)c1cc(C(=O)Nc2ccncc2)ccc1Cl	8%	4.8	-21%	23%	-27	-7	-1.4%
23	Cc1c(Cl)cccc1NC(=S)NCCc1ccc(Cl)cc1	12%	-1.7	-5%	-11%	-16	-10	/
24	Cc1ccc(C)c(N2C(=O)CC(Cc3ccc(Cl)cc3)C2=O)c1 (stereo unspecified)	-4%	-0.9	-15%	-2%[15.4 µM]	0	-3	-0.5%
25	Cc1cccc(S(=O)(=O)N(C)C[C@H]2OCc3cnnn3CCCC(=O)N([C@H](C)CO)C[C@@H]2C)c1	/	/	/	-80%[inhibitor]	/	7	-1.9%
26	COc1cccc(/C=N/NC(=O)c2[nH]nc3c2CCc2ccccc2-3)c1O	?	8.6	8%	2%	18	19	8.5%
27	CCOC(=O)CN1C(=O)C(CC)Oc2ccc(Cl)cc21 (stereo unspecified)	11%	1.8	-15%	-4%	1	-7	-2.0%
28	O=[N+]([O-])c1ccc(COc2ccc(-c3[nH]ncc3-c3ccc(Cl)cc3)c(O)c2)cc1	-14%	-1.8	-11%	-1%	9	27	-3.3%
29	Nc1ncnc(Sc2ccc(Cl)cc2)c1[N+](=O)[O-]	0%	2.5	-2%	-21%	13	13	1.1%
30	CCOC(=O)CC(NC(=O)Cn1nnc(-c2ccccc2)n1)c1ccc(OC)cc1 (stereo unspecified)	2%	-4.3	1%	9%	0	-7	2.0%
31	O=C(c1ccccc1Cl)N1CCSCC1	8%	2.1	14%	-5%[15.4 µM]	-20	-3	/
32	N#C/C(=N\Nc1ccccc1)C(=N)N1CCCCCC1	-5%	-1.8	0%	-89%[inhibitor]	-24	-14	0.1%
33	C=CCc1cccc(CNc2ccc(S(=O)(=O)Nc3nccnc3OC)cc2)c1O	20%	-0.1	-10%	?	3	0	/
34	O=C(NCCCN1CCOCC1)c1cc(C(=O)C2CC2)c[nH]1	5%	0.8	6%	?	2	6	-6.0%
35	CN(C)c1ccc(Cl)cc1N	4%	-8.6	18%	11%	25	-1	/
36	O=C(NCc1ccc2[nH]c3c(c2c1)CCCC3)N1CCOCC1	-18%	?	/	/	15	/	/
37	O=C(CCN1C(=O)[C@@H]2Cc3ccccc3CN2C1=O)NCCc1ccccc1	0%	/	0%	-24%	27	-3	0.0%
38	CC(=O)Nc1ccc(S(=O)(=O)N2CCSC2c2ccccc2Cl)cc1 (stereo unspecified)	5%	0.5	-19%	-18%	-15	7	0.6%
39	O=C(Cn1nnc(-c2ccccc2Cl)n1)N1CCCCC1	4%	-2.8	12%	23%	-4	4	/
40	COc1ccc(/C(CC2OC(=O)c3ccccc32)=N\NC(N)=O)cc1 (stereo unspecified)	15%	-1.5	-16%	-7%[15.4 µM]	-1	6	/
41	O=C1C2C3CC(C(Br)C3Br)C2C(=O)N1CC1CCCO1 (stereo unspecified)	6%	0.9	-7%	13%[15.4 µM]	-1	-5	0.7%
42	CNC(=S)Nc1ccccc1-c1ccccc1	3%	3.9	5%	28%	2	-2	1.8%
43	COc1ccc(OC)c(NS(=O)(=O)c2ccc(NC(=O)c3ccc(NS(C)(=O)=O)cc3)cc2)c1	14%	/	10%	1%	-9	-4	-0.9%
44	C=CCOC(=O)C1=C(C)OC(N)=C(C#N)C1c1ccccc1F (stereo unspecified)	9%	3.6	-6%	-42%[inhibitor]	2	0	-2.4%
45	CNC(=O)c1cc2c(=O)n3cc(C)ccc3nc2n(C(C)C)c1=N	14%	-3.3	25%	?	25	3	-15%
46	Cc1ccc(N2CN(CCC3=CCCCC3)CNC2=S)cc1	2%	0.6	1%	14%	29	-24	1.1%
47	CCOC(=O)c1ccn(-c2nc(-c3ccco3)cc(C(F)(F)F)n2)n1	3%	1.0	-19%	-33%[inhibitor]	-18	0	5.2%
48	NC(=O)c1ccc(C(=O)N/N=C/c2cccc(Oc3ccccc3)c2)cc1	19%	0.4	-8%	?	4	2	-8.8%
49	O=C1N(CN2CCN(Cc3ccccc3)CC2)c2ccccc2C12OCCCO2	4%	1.4	6%	-2%[15.4 µM]	24	-33	-0.3%
50	O=C(Nc1ccc2c(c1)OCO2)c1nn(-c2ccccc2)c(=O)c2ccccc12	-3%	4.5	3%	21%	/	-9	0.7%
51	C#Cc1ccc([C@H]2C=C(C(=O)NCc3ccccc3)O[C@@H](OCc3ccc(CO)cc3)C2)cc1	/	/	-18%	/	/	0	-1.7%
52	CCOC(=O)CC(=O)CSc1nc(C)nc2c1oc1ccccc12	11%	3.6	6%	?	2	-19	-5.0%
53	COc1cccc(-c2cc(C(=O)NCCc3ccccc3)no2)c1	26%	-4.2	5%	4%	4	-14	-0.6%
54	CCCCNC1CCS(=O)(=O)C1 (stereo unspecified)	3%	3.5	2%	?	7	-13	0.1%
55	O=C(NCc1ccco1)c1cc2ccccc2c(=O)o1	-28%	1.8	-1%	-6%	1	-8	-13%
56	COc1cccc2sc(N3CCN(C(=O)c4cccs4)CC3)nc12	/	/	-2%	-14%	-35	-14	0.8%
57	O=C(Oc1ccc(-n2cnnn2)cc1)c1ccccc1	-6%	0.2	-3%	4%[15.4 µM]	-9	3	/
58	CCN(CC)S(=O)(=O)c1ccc(N2CCN(C)CC2)c(NC(=O)c2cc(=O)c3ccccc3o2)c1	3%	-11	7%	?	3	-1	/
59	O=C(NCC1CCN(c2ccc(S(=O)(=O)N3CCOCC3)cc2)CC1)c1ccc(Cl)cc1	-5%	0.3	-4%	-6%	-4	-8	-0.5%
60	CC(=O)c1ccccc1NC(=O)c1ccc(N2CCCC2=O)cc1	/	/	-27%	13%[15.4 µM]	-17	-3	/

# Later entries:
item	SMILES	Sfp PPTase inh	Menin MLL FP FL	gsp antagonist	gsp agonist	TRPV1 PAM	D2 potentiator	ClpP mod
61	COc1ccc(N2CCN(C(=O)c3ccc4c(=O)n5c(nc4c3)CCCCC5)CC2)cc1	12%	-2.6	0%	-85%[inhibitor]	0	-1	1.3%
62	Cc1cccc(C(=O)NC2CC3CCC(C2)N3C)c1 (stereo unspecified)	/	/	6%	-2%[15.4 µM]	-7	-10	-1.8%
63	O=C(NNC(=O)c1oc2ccccc2c1-n1cccc1)c1ccco1	11%	0.3	-3%	6%	-3	-9	-3.6%
64	CCc1nnc(NC(=O)C2CSC3(C)CCC(=O)N23)s1 (stereo unspecified)	/	/	12%	21%[15.4 µM]	4	-2	/
65	CCC(C)NC(=O)c1ccccc1NC(=O)C1COc2ccccc2O1 (stereo unspecified)	9%	-1.6	-9%	12%	-5	2	-9.8%
66	CC(=O)Nc1ccc(OCc2nnc(-c3ccc(Cl)cc3)o2)cc1	4%	-2.2	4%	-35%	1	-3	/
67	Cn1nnc2cc(C(=O)N3CCCCCC3)ccc21	7%	0.1	10%	-61%[inhibitor]	-3	2	1.1%
68	Cc1onc(-c2ccccc2Cl)c1C(=O)NC(=S)NCCc1ccccc1	11%	1.8	-3%	13%[15.4 µM]	-1	-5	-2.2%
69	COc1cccc(CNC(=O)C2(C)Oc3ccccc3NC2=O)c1 (stereo unspecified)	15%	1.0	-5%	21%	1	-4	0.8%

# Compound activity from PubChem.
